# Screening results deposited in PubChem BioAssay by ICCB-Longwood Screening Facility, Harvard Medical School.
# HCMV UL50-53 inh = disrupts HCMV UL50-UL53 complex binding; AID 1918969; inhibition, % (no concentration beside the values); hit rate 0.15% among 190,000; HTRF UL50-UL53 interaction, normalized percent inhibition;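 active = both replicates at 50% or more, plus weaker picks with an unusually low signal ratio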;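 also: stock transfer was 100 nL into about 20 µL; 0% = negative control wells and 100% = wells with untagged competitor protein; inactives centre near -12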
# Sa growth 42C = S. aureus growth inhibition. relative growth, % (concentration not given with the values). S. aureus RN4220 growth, OD600, 20 h, 42 °C; hits give low values. hit rate 0.53% among 170,000;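 active = growth at 42 °C up to 50% and 20 or more points under that at 30 °C, or under 10% at both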;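 also: 300 nL library stock went into each well; scaled to the means of positive and negative controls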
# GIV-Gai inh = inhibitors of GIV GBA-motif binding to rat Galpha-i3. Galpha-i3/FITC-GIV peptide fluorescence polarization, 90 min; hits give low values; scaled: aluminum fluoride 0%, vehicle 100%. percent of control (FP), % (test concentration not listed). hit rate 0.42% among 210,000. AID 1224905;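 active = replicate mean at 85% of control or lower, very high polarization wells dropped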;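 also: wells of about 15 µL received 100 nL stock; the first replicate is given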
# Target sequence (P08753 whole entry, looked up): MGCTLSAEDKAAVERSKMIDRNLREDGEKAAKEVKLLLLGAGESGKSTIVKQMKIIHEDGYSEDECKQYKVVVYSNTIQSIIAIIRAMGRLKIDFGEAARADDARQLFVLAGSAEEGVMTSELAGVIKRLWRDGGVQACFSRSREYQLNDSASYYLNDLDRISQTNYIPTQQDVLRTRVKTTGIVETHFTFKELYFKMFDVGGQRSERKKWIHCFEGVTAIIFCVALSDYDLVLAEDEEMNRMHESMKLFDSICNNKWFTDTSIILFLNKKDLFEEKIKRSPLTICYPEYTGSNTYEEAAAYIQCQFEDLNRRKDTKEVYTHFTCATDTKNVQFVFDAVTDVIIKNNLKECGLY
# Sa growth 42C second temp = also measured in Sa growth 42C; calls as there; relative growth, %; measured here: growth at 30 °C;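 optical density after 20 h as mean of two plates; 100% = untreated growth and lower means inhibition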
# * = called active by the depositor; / = no result given; & = joins results of further samples.
SMILES,HCMV UL50-53 inh,Sa growth 42C,Sa growth 42C second temp,GIV-Gai inh
Cc1cc2n(n1)SC(Nc1ccc(F)c(Cl)c1)N2 (stereo unspecified),2,90,73,/
O=C(NCc1ccccc1Cl)C1CCCN(c2nc3ccccc3o2)C1 (stereo unspecified),9,101,102,102
O=C(COC(=O)c1c(-n2cccc2)sc2c1CCCC2)Nc1ccc(F)cc1,2,119,99,/
CC(C)CNS(=O)(=O)c1ccccc1C(=O)N1CCCCC1,/,105,85,97
COc1cc(OC)cc(C(=O)NCCOC23CC4CC(CC(C4)C2)C3)c1,-3,116,96,/
CCc1ccc(NC(=O)CN2C(=O)C3CCCN3c3ccc(S(=O)(=O)N(CC)CC)cc32)cc1 (stereo unspecified),/,87,101,136
Cc1ccc(S(=O)(=O)N(C)CC(=O)Nc2ccccc2C(F)(F)F)cc1,-8,116,98,104
C(=N\OCc1nnc(-c2ccc3ccccc3c2)o1)/c1cccc2c1OCO2,-22,100,89,105
C=CCn1c(CSc2ccc(C)cc2)n[nH]c1=S,-10,83,79,98
COc1ccc(NC(=O)C2CC(=O)N(Cc3ccccc3)C(=Nc3ccc(F)cc3)S2)cc1 (stereo unspecified),8,/,/,102
O=C(Nc1nc2nc(-c3cccs3)cc(C(F)(F)F)c2s1)c1ccco1,4,76,88,/
O=C(C1CC(=O)N(c2cccc(Cl)c2)C1)N1CCC(c2nc(-c3ccccc3)no2)CC1 (stereo unspecified),-17,/,/,109
CN(Cc1ccccc1)C(=O)c1cc(-c2ccco2)[nH]n1,-29,108,86,102
CCN(Cc1ccncc1)C(=O)C1CCCO1 (stereo unspecified),-6,92,101,99
CC(C)(C)CC(C)(C)NCc1ccccc1OCC(N)=O,-35,103,99,109
CCN(C(=O)c1cc(S(=O)(=O)N2CCOCC2)cn1C)c1ccc(OC)cc1,-16,108,88,102
O=C(Cn1ccc2ccccc2c1=O)NC1CCCCCC1,7,97,98,108
Nc1nc(C2CC(=O)OC23CCCCC3)cs1 (stereo unspecified),-20,122,99,99
COc1ccc(C)cc1NC(=O)C(NS(=O)(=O)c1cccs1)c1ccccc1 (stereo unspecified),-33,108,92,113
O=C(/C=C/Sc1nc2cc(Cl)ccc2s1)c1ccc(F)cc1,5,133,86,104
Cn1c(=O)cc(OCC(=O)N2CCCC2)c2ccccc21,/,94,92,100
Nc1nc(-c2ccccc2)c(C(=O)c2ccccc2)s1,-28,118,87,110
O=C(CCc1nc2cccnc2n1-c1ccccc1)NCc1ccc(CN2CCOCC2)o1,-15,102,90,103
Cc1nc(-c2ccc(S(=O)(=O)Nc3cc(Cl)ccc3C)cc2)co1,/,91,76,104
Cc1c(C(=O)/C=C/N(C)C)sc2ccccc12,-86,90,64,108
O=c1nc2sc3[nH]c(=O)sc3cc-2s1,-78,82,68,-47*
CN(C(=O)/C=C\c1ccc2c(c1)OCO2)C(C(=O)Nc1ccc2c(c1)OCO2)c1ccccc1 (stereo unspecified),/,103,81,97
NC1=NC(=O)CC(C(=O)Nc2ccc(-c3ccccc3)cc2)S1 (stereo unspecified),-17,112,90,/
Cc1ccc(SCC(=O)NCc2ccco2)cc1,-37,105,87,/
COc1cccc(CNC(=O)Cn2c(SCC(=O)Nc3ccc(F)cc3)nc3ccccc32)c1,/,112,95,102

# Part of the list above in order of SMILES length, highest first.
SMILES,HCMV UL50-53 inh,Sa growth 42C,Sa growth 42C second temp,GIV-Gai inh
CN(C(=O)/C=C\c1ccc2c(c1)OCO2)C(C(=O)Nc1ccc2c(c1)OCO2)c1ccccc1 (stereo unspecified),/,103,81,97
O=C(CCc1nc2cccnc2n1-c1ccccc1)NCc1ccc(CN2CCOCC2)o1,-15,102,90,103
Nc1nc(-c2ccccc2)c(C(=O)c2ccccc2)s1,-28,118,87,110

# Additional entries follow.
SMILES,HCMV UL50-53 inh,Sa growth 42C,Sa growth 42C second temp,GIV-Gai inh
CC(=O)Nc1cccc(NC(=O)Cc2csc(NC(=O)Nc3cccc(Cl)c3)n2)c1,1,/,/,108
CCOc1ccccc1C(=O)N1CCN(C(=O)c2ccccc2)CC1,-3,86,93,/
COc1ccccc1OCc1nc(C#N)c(NCCCn2ccnc2)o1,-23,97,91,101
O=C(COc1ncnc2ccccc12)N1CCCC1,3,101,90,/
Cc1cc(/C=C2/C(=N)N3C(=NC2=O)SN=C3S(=O)(=O)C(C)C)c(C)n1Cc1ccccc1,-44,22,9,98
C=CCn1c(SC(C)C(=O)NC(N)=O)nnc1-c1occc1C (stereo unspecified),-7,96,95,/
O=C(O)C1CCN(C(=O)c2ccc(-c3ccccc3)cc2)CC1,10,129,106,96
O=C(NCc1noc(C2CCCC2)n1)c1ccccc1,8,/,/,104
COc1ccccc1-c1nc(N)n[nH]1,-5,96,90,/
CCCN1C(=O)C2(c3ccccc31)c1c(oc3ccccc3c1=O)C(=O)N2CCCOC(C)C (stereo unspecified),-10,109,89,100
C=CCNC(=O)COc1ccc(C(C)C)cc1,/,102,71,98
CCn1c(CCC(=O)O)nc2cc(S(N)(=O)=O)ccc21,-8,84,89,/
CCS(=O)(=O)c1cccc(C(=O)N2CCN(c3nc4c(C)ccc(Cl)c4s3)CC2)c1,/,106,73,92
Cc1cccc2cc3c(nc12)N(C(=O)C1CC1)CC3,-3,/,/,98
CCCCCCC(=O)OC1CC(C)(C)NC(C)(C)C1,-11&10,/,/,102
CC(C)N(Cc1ccccc1)S(=O)(=O)c1ccc(C(=O)Nc2nnc(-c3cccs3)o2)cc1,5,7.3*,5.9*,103
Cn1/c(=N\NC(=O)C2CCCCC2)sc2ccccc21,-20,88,78,103
CS(=O)(=O)N(CC(=O)Nc1ccc(S(=O)(=O)N2CCOCC2)cc1)c1ccccc1Br,1,/,/,101
Cc1c(C2CCN(S(=O)(=O)c3cnc[nH]3)CC2)c2ccccc2n1Cc1c(F)cccc1Cl,-7,/,/,106
COc1cccc(N2CCN(C(=O)Cn3ncc4c(=O)oc5ccccc5c43)CC2)c1,7,105,88,103
Cc1ccc(Cl)cc1N1CCN(C(=O)C2CCN(S(=O)(=O)c3ccc4c(c3)oc(=O)n4C)CC2)CC1,/,92,96,95
O=S1(=O)CCC(N=Cc2ccc(-c3ccc(Br)cc3)o2)C1 (stereo unspecified),-63,96,98,113
Cc1onc(-c2c(F)cccc2Cl)c1C(=O)NC(=S)NC1CCSC1=O (stereo unspecified),/,96,73,98
COc1ccc2c(c1)CCCC2(C#N)CC#N (stereo unspecified),-4,103,62,101
CC1(C)C2CCC1(CS(=O)(=O)NCc1ccc(Cl)cc1Cl)C(=O)C2 (stereo unspecified),16,94,91,/
CCOc1ccc(S(=O)(=O)Nc2ccc3c(c2)CCCN3C(=O)c2cccs2)cc1,/,108,90,100
O=C(CCc1cn(-c2ccccc2)nc1-c1ccc2c(c1)OCO2)NC1CCCCC1,-28,/,/,100
CC1=C(C(=O)Nc2ccccc2Cl)C(c2cccs2)n2ncnc2N1 (stereo unspecified),/,102,93,98
O=C(Cc1ccc2c(c1)OCCO2)Nc1ccccc1C(F)(F)F,1,106,98,/
Cc1ccc(OCCn2cccc2/C=C2/C(=N)N3C(c4ccccc4)=CSC3=NC2=O)cc1,-18,98,97,101
Cc1noc2c1C(c1ccc(F)cc1)C1=C(CC(c3ccc(O)cc3)CC1=O)N2 (stereo unspecified),-24,/,/,107
CC(Cc1c[nH]c2ccccc12)NC(=O)c1ccco1 (stereo unspecified),/,108,84,102
CC(Oc1ccc(Cl)cc1Cl)C(=O)Nc1nncs1 (stereo unspecified),-5,92,72,/
O=C(Nc1ccc2oc(-c3ccc(O)c(Br)c3)nc2c1)c1cc2ccccc2o1,-33,116,82,102
O=C1NCCCC1C(=O)N1CCCCC1 (stereo unspecified),7,82,90,/
CC1=C(C(=O)OC2CCCC2)C(c2cccc(Cl)c2Cl)CC(=O)N1 (stereo unspecified),2,120,91,104
Cc1c(OCc2ccc(F)cc2)ccc2c3c(c(=O)oc12)CCCC3,-8,101,86,/
O=C1Cn2nnc(C(=O)c3ccccc3)c2C2(CCCCC2)O1,-13,93,94,/
O=C(CN1C(=O)CCc2cc(S(=O)(=O)N3CCCC3)ccc21)NCc1ccc(Cl)cc1,-18,/,/,101
O=C(N/N=C1/C(=O)c2cccc3cccc1c23)c1ccc2c(c1)OCO2,-39,41,10,/
COC(=O)c1ccc(NC(=O)CSc2nnc(N)s2)cc1,-8,102,93,/
O=C(CCN(CCCN1CCCC1)C(=O)c1cccc(Br)c1)N1CCNCC1,-33,/,/,100
COc1ccc(C(CNC(=O)c2ccc(C)cc2)N2CCOCC2)cc1 (stereo unspecified),2,117,89,101
CCCCOc1cccc(C(=O)Oc2cccc(-n3cnnn3)c2)c1,-30,/,/,95
Cc1cc(NC(=O)Cc2cn3ccsc3n2)n(-c2ccccc2)n1,-1,93,89,/

# Full records from above.
# COC(=O)c1ccc(NC(=O)CSc2nnc(N)s2)cc1 is entered as HCMV UL50-53 inh: -8; Sa growth 42C: 102; Sa growth 42C second temp: 93; GIV-Gai inh: /
# O=C1NCCCC1C(=O)N1CCCCC1 (stereo unspecified) is entered as HCMV UL50-53 inh: 7; Sa growth 42C: 82; Sa growth 42C second temp: 90; GIV-Gai inh: /

# Carrying on:
SMILES,HCMV UL50-53 inh,Sa growth 42C,Sa growth 42C second temp,GIV-Gai inh
CCc1ccccc1N(CC)C(=O)C1CCN(c2ncnc3c2nc2n3CCCCC2)CC1,/,138,103,105
COc1cc(-c2nnc(SCC(=O)Oc3ccccc3)o2)cc(OC)c1OC,-24,100,85,99
CCCN(CCC)C(=O)c1cc(-c2ccc3c(c2)OCO3)nc2ccccc12,-13,103,96,102
CCc1nnc2c(NCC3CCCN3CC)nc3ccccc3n12 (stereo unspecified),-4,89,90,96
Clc1ccccc1C1Nc2ccc3ccccc3c2C2C=CCC21 (stereo unspecified),-22,/,/,104
CC(=O)Nc1sc(C)c(C)c1C(=O)OCC(=O)c1cc(C)n(C)c1C,-14,87,88,/
Cc1cc2nnc(SCc3ccc(Cl)cc3)n2c2ccccc12,/,105,73,102
Cc1ccc(OCc2cc(=O)n3ccsc3n2)c(NC(=O)c2ccco2)c1,/,70,85,100
Cn1c(C(=O)N2CCN(c3cccc(Cl)c3)CC2)cc2c(=O)oc3ccccc3c21,-15,/,/,103
COc1ccc(N(C)C(=O)CCS(=O)(=O)c2cccc3nsnc23)cc1,-110,100,89,104
CCCCOC(=O)c1c(N)n(-c2ccc(OC)cc2OC)c2nc3ccccc3nc12,-8,108,84,107
Fc1ccccc1-c1nn2c(-c3cccnc3)nnc2s1,-13,/,/,109
O=C1C2C3CC4C1C1C2CC3C41 (stereo unspecified),-24,92,93,/
COc1ccc(C(O)CNc2ccc(C)cc2)cc1 (stereo unspecified),2,106,94,/
CC(=O)c1cccc(NCc2ccccc2-c2nnc(-c3ccccc3)o2)c1,-8,104,90,103

# Gathered by group, those above containing a CF3 group
SMILES,HCMV UL50-53 inh,Sa growth 42C,Sa growth 42C second temp,GIV-Gai inh
Cc1ccc(S(=O)(=O)N(C)CC(=O)Nc2ccccc2C(F)(F)F)cc1,-8,116,98,104
O=C(Nc1nc2nc(-c3cccs3)cc(C(F)(F)F)c2s1)c1ccco1,4,76,88,/
O=C(Cc1ccc2c(c1)OCCO2)Nc1ccccc1C(F)(F)F,1,106,98,/

# Following part
SMILES,HCMV UL50-53 inh,Sa growth 42C,Sa growth 42C second temp,GIV-Gai inh
O=C(O)CC1(CC(=O)Nc2ccc3sccc3c2)CCCCC1,-6,165,70,102
COc1ccccc1C1C(C(=O)OCC(N)=O)CCC(=O)N1c1ccc(C)cc1 (stereo unspecified),-26,79,95,/
CC(C)C(NC(=O)c1ccc(Cl)cc1)C(=O)Nc1cccc(-n2cnnn2)c1 (stereo unspecified),-36,78,86,/
COc1ccc(CN(C)C(=O)C2CC3C=CC2C3)c(OC)c1 (stereo unspecified),-20,103,98,/
CCCNC(=O)CSc1nnc(-c2ccoc2C)o1,-10,/,/,103
Cc1ccc(CNC(=O)c2cnn(-c3ccccc3)c2-n2cccc2)cc1,-16,86,92,104
CCc1ccc(C2=CC(c3cccc(C)c3)n3c(nc4ccccc43)N2)cc1 (stereo unspecified),/,72,23,104
Cc1ccc(CNS(=O)(=O)c2ccc3[nH]c4c(c3c2)CCCC4)cc1,/,99,82,102
CCCN(CCC)C(=O)CCS(=O)(=O)c1ccc2c(c1)NC(=O)CO2,-10,/,/,108
COCCN(C(C)=O)c1nnc(-c2cccnc2)s1,-2,101,84,97
Cc1nc2ccccn2c1C1(O)C(=O)Nc2c(Cl)cc(Cl)cc21 (stereo unspecified),-18,109,81,/
Cc1nn(-c2ccccc2)c(OC(=O)c2cccs2)c1Sc1ccccc1,/,77,57,94
O=C(c1nnc(-c2cccc(Cl)c2)o1)N1CCCC1,-23,/,/,100
CCc1ccccc1Nc1cc(C(=O)NCc2ccc(C)cc2)c2ccccc2n1,-20,99,86,102
N=C(N)SCc1csc2c1CCCC2,/,96,76,98
N#C/C(=C\O)c1ccc(Cl)cc1Cl,-9,/,/,108
Cc1ccc(C(=O)CSc2nc(N)c(C(=O)c3ccc(C)cc3)s2)cc1,-25,107,85,103
CCOc1ccc(NC(=O)c2cc(=O)c3cc(Cl)c(C)cc3o2)c2cccnc12,-10,/,/,105
COc1ccc(C2C(C#N)=C(N)Oc3n[nH]c(C)c32)cc1OCc1ccc(Cl)cc1 (stereo unspecified),5,/,/,111

# Rows were taken by chance. Share with any hit: about 0.83%.
